PABP polyA inh – PABP-poly(A) binding inhibition. actives 1% (n = 290,000). PABP-poly(A) RNA binding, fluorescence polarization. inhibition, % at 35 µM;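 active = 50% or more with normal probe brightness, or confirmed in later tests; inconclusive = above 50% with abnormal brightness, or retests that disagree; inactive = below 50% or failed in later tests; about a fifth of its hits are not listed in these tables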;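 note: calls also rest on retests at 20 µM and on dose response follow-up; controls were probe without protein and protein plus probe with vehicle; some compounds called inactive have numbers as strong as hits; many hits fall short of the cut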
Target sequence (P11940 whole entry, looked up): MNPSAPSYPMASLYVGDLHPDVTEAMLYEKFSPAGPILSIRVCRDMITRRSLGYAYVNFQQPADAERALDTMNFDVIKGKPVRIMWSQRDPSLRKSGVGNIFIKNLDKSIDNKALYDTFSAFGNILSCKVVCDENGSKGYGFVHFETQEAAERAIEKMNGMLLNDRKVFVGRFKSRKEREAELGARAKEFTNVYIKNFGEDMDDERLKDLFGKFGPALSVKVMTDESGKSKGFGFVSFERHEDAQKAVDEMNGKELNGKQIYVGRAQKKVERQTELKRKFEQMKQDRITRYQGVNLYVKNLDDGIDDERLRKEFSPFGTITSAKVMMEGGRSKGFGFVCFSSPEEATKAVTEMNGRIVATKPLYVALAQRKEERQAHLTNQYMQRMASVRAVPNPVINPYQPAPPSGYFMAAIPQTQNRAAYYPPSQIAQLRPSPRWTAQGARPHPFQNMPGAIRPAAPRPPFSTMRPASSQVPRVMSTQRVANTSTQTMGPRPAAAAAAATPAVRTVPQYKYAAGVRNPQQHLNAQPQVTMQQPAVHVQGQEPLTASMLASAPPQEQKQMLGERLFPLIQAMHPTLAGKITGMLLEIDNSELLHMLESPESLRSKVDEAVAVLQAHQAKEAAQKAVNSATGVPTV
CSC inhib – cancer stem cell inhibition. cancer stem cell-like cells viability, luminescence. inhibition, % at 7.5 µM. actives 1.1% (n = 300,000). AID 2717;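 active = mean at 75% or more and at least half the replicates too; inconclusive = mean and replicates disagree; tested in HMLE shEcad cells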;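 note: 0% = median of negative and 100% = median of positive control wells; the first replicate is given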
Yeast UUG start – alters start codon recognition fidelity in yeast | S. cerevisiae UUG-firefly luciferase reporter, luminescence/redox ratio | activity score, % at 18.7 µM | actives 0.13% (n = 350,000);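 active = replicate mean at a twofold rise or more, about +100% in these data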;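 note: firefly luciferase made from a UUG start codon reports start codon fidelity; reporter light over untreated wells divided by growth signal over untreated wells; some hits fall short of that in this replicate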
eIF4H inh – inhibitors of RNA binding by human eIF4H | eIF4H fluorescence polarization binding assay | inhibition, % at 35 µM | Q15056 | actives 0.94% (n = 290,000);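 active = 50% or more with normal probe brightness, or confirmed in later tests; inconclusive = above 50% with abnormal brightness, or retests that disagree; inactive = below 50% or failed in later tests; about a fifth of its hits are not listed in these tables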;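 note: calls also rest on retests at 20 µM and on dose response follow-up; 0% = protein and probe with vehicle and 100% = probe without protein; strong numbers were not always called active; many hits fall short of the cut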
MT1-MMP act inh – inhibitors of human MT1-MMP activation; P50281; HT1080 RFP-PRO-GFP cells, GFP/RFP ratio fluorescence, overnight; percent of plate control window, DMSO zero; GFP/RFP ratio change, % at 20 µM; actives 0.061% (n = 360,000);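 active = GFP/RFP ratio change of at least 30% with cell ATP level not reduced by more than half and red fluorescence within 50% of control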; note: strong numbers were not always called active
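Test system: HT1080 RFP-PRO-GFP cells; Benchmarks: DMSO and RFP-L50D-GFP cell wells; Timing: cells overnight before dosing, compound overnight, 37 °C, 5% CO2; Compound: one 20 µM compound dose with 1% DMSO; Read-out: GFP/RFP fluorescence ratio.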
Rce1 inhib – yeast Ras-converting enzyme inhibition; Q03530; yeast membranes, quenched prenylated peptide cleavage fluorescence; calls only; actives 0.27% (n = 290,000); AID 2563;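 active = fall in fluorescence gain of 50% or more versus controls, with final raw signal at or below 3038400; inconclusive = same 50% fall but final raw signal above 3038400; inactive = fall in fluorescence gain under 50%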;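 note: plate controls were neutral control wells for no effect and wells lacking membranes for full effect; tested at 10 µM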
Target sequence (Q03530 whole entry, looked up): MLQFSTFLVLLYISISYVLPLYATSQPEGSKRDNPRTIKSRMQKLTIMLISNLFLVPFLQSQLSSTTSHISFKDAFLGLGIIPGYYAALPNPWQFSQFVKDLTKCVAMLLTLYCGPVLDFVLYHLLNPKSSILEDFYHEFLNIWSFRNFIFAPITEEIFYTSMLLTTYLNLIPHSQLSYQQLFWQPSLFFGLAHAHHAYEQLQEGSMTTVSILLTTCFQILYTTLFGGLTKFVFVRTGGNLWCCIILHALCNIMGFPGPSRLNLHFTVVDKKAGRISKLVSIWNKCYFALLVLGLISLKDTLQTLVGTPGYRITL
Env fusion inh – blocks HIV Env-driven cell-cell fusion. HeLa-JRFL Env/CEM21 cell fusion, luciferase. inhibition, % at 12.3 µM. actives 1.1% (n = 360,000). AID 651610;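 active = mean replicate inhibition score of at least 50 and every replicate individually at or above 50; inconclusive = only one of the two criteria met; inactive = mean below 50 and not all replicates reaching 50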;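 note: 0% = plate neutral controls and 100% = maraviroc near 300 nM; one replicate is shown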
eIF4H inh retest – recorded beside eIF4H inh, whose call it bears; inhibition, %; compound at 20 µM; confirmation average;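 mean of two retest wells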
PABP polyA inh retest – also measured in PABP polyA inh; calls as there; inhibition, %; compound at 20 µM; confirmation repeats;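 mean of two retest wells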
MT1-MMP act inh RFP – recorded beside MT1-MMP act inh, whose call it bears; RFP signal change, %; measured here: RFP expression control read;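 0 = vehicle wells; hits needed this value within 50% of zero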
Active calls of the source: *; & = joins results of further samples.

`CC(=O)c1c(C)n(CCc2ccc(Cl)cc2)c2ccc(O)cc12` gave PABP polyA inh -1, CSC inhib -11, Yeast UUG start -32, eIF4H inh 1, MT1-MMP act inh 2, Rce1 inhib inactive, Env fusion inh 2 and MT1-MMP act inh RFP 3.
CC1(C(=O)Nc2ccc(Cl)cc2)Cc2c(-c3cccc(C(N)=O)c3)ccnc2O1 (centres undefined) was read as Yeast UUG start -4, MT1-MMP act inh 3, Env fusion inh -99 and MT1-MMP act inh RFP -7.
For O=C(c1ccc(S(=O)(=O)c2ccc(Cl)cc2)cc1)N1CCOCC1 the results were PABP polyA inh 0, CSC inhib -4, eIF4H inh 6, MT1-MMP act inh -1, Rce1 inhib inactive, Env fusion inh 3 and MT1-MMP act inh RFP 3.
For Cc1ccc(S(=O)(=O)c2c(CO)c(-c3ccccc3)nn2C)cc1 the results were PABP polyA inh -4, CSC inhib 7, eIF4H inh -4, MT1-MMP act inh 2, Rce1 inhib inactive, Env fusion inh 12 and MT1-MMP act inh RFP -9.
CCOc1ccc(CC(=O)NNC(=S)Nc2ccccc2)cc1Br was read as PABP polyA inh -9, CSC inhib -20, Yeast UUG start -34, eIF4H inh 2, MT1-MMP act inh 1, Rce1 inhib inactive and MT1-MMP act inh RFP -4.
COc1ccc(CN2C3CCCC2CC(NC(=O)Nc2cccc(C)c2)C3)cc1 (centres undefined) was read as PABP polyA inh 7, CSC inhib -2, Yeast UUG start -8, eIF4H inh 30, MT1-MMP act inh 2, Env fusion inh -1 and MT1-MMP act inh RFP -2.
`O=C(Cn1cc(C(=O)c2cccs2)c2ccccc21)NC1CCCCC1` gave PABP polyA inh 7, CSC inhib -4, Yeast UUG start -26, eIF4H inh -8, MT1-MMP act inh -5, Rce1 inhib inactive, Env fusion inh -143 and MT1-MMP act inh RFP -8.
COc1ccccc1CNC(=O)COC(=O)CCC(=O)c1cccs1 was read as PABP polyA inh -8, CSC inhib -6, Yeast UUG start -18, eIF4H inh -9, MT1-MMP act inh 6, Rce1 inhib inactive, Env fusion inh 16 and MT1-MMP act inh RFP 3.
For CN(C(=O)c1ccc(NC(=O)C2CCCN(C(=O)OC(C)(C)C)C2)cc1)C1CCCCC1 (centres undefined) the results were CSC inhib 17, Yeast UUG start 24, MT1-MMP act inh 0, Env fusion inh 2 and MT1-MMP act inh RFP -6.
Screening O=C(O)COc1ccccc1C1C2C(=O)N(c3ccccc3)C(=O)C2ON1c1ccccc1 (centres undefined) returned PABP polyA inh 6, CSC inhib 0, Yeast UUG start -5, eIF4H inh 3, MT1-MMP act inh 2, Rce1 inhib inactive and MT1-MMP act inh RFP 4.
`CC(C)C[C@H]1CNC(=S)N1C[C@H]1CCCN1C[C@H](Cc1ccc(O)cc1)N1C[C@H](CC(C)C)N(CC2CCCCCC2)C1=S` gave Yeast UUG start -21, MT1-MMP act inh -13, Env fusion inh 3 and MT1-MMP act inh RFP -21.
C[C@H](N)C(=O)OCc1ccc([N+](=O)[O-])cc1 was read as PABP polyA inh -2, CSC inhib 25, Yeast UUG start 1, eIF4H inh -4, MT1-MMP act inh 1, Rce1 inhib inactive, Env fusion inh -6 and MT1-MMP act inh RFP 6.
`CCOC(=O)c1[nH]c(C)c(C(=O)Nc2ccc(C)c(F)c2)c1C` gave PABP polyA inh -5, CSC inhib 49, eIF4H inh 7, MT1-MMP act inh -3, Rce1 inhib inactive and MT1-MMP act inh RFP -5.
Screening CC(C)Cn1c2ccccc2c2cc(C(=O)O)ccc21 returned PABP polyA inh -5, CSC inhib 6, Yeast UUG start -11, eIF4H inh -13, MT1-MMP act inh 0, Rce1 inhib inactive, Env fusion inh -16 and MT1-MMP act inh RFP -1.
Cc1ccc(Sc2c([N+](=O)[O-])c(=O)n(C)c3ccccc23)cc1 was read as PABP polyA inh 1, CSC inhib 118*, Yeast UUG start -10, eIF4H inh -3, MT1-MMP act inh -12, Rce1 inhib inactive, Env fusion inh 4 and MT1-MMP act inh RFP -8.
`COc1ccccc1NC(=O)c1ccc2c(c1)N(CC(=O)NC(C)C)C(=O)C(C)(C)O2` gave PABP polyA inh -2, CSC inhib -10, Yeast UUG start 3, eIF4H inh 3, MT1-MMP act inh 2, Rce1 inhib inactive, Env fusion inh 12 and MT1-MMP act inh RFP 1.
Screening Cc1cc(/C=C2\SC(=S)N(C)C2=O)c(C)n1-c1cccc(O)c1 returned PABP polyA inh inconclusive, CSC inhib inconclusive, eIF4H inh inconclusive, MT1-MMP act inh -117, Rce1 inhib inactive, Env fusion inh -54 and MT1-MMP act inh RFP -23.
`CN(C)CCNc1oc(-c2ccccc2F)nc1C#N` gave PABP polyA inh -12, CSC inhib -4, Yeast UUG start -10, eIF4H inh -4, MT1-MMP act inh -4, Rce1 inhib inactive, Env fusion inh -10 and MT1-MMP act inh RFP 0.
`Cc1ccc(NC(=O)C(=O)c2ccc(C)cc2)cc1` gave PABP polyA inh 3, CSC inhib 1, Yeast UUG start -30, eIF4H inh 26, MT1-MMP act inh -1, Rce1 inhib inactive, Env fusion inh -137 and MT1-MMP act inh RFP -4.
`Cc1cc(C)n(C(=O)CCCCCCCCC(=O)n2nc(C)cc2C)n1` gave PABP polyA inh 8, Yeast UUG start -27, eIF4H inh -7, MT1-MMP act inh 1, Rce1 inhib inactive, Env fusion inh -12 and MT1-MMP act inh RFP 8.
N#CC(=C=[N-])c1nc2ccccc2nc1-[n+]1ccccc1 was read as PABP polyA inh 10&4, CSC inhib -14&6, eIF4H inh 3&8, MT1-MMP act inh 8&9, Rce1 inhib inactive, Env fusion inh -12&1 and MT1-MMP act inh RFP 5&2.
COc1ccc(S(=O)(=O)N(C)CC(=O)Nc2ccc(F)cc2)cc1 was read as PABP polyA inh -1, CSC inhib 5, Yeast UUG start -4, eIF4H inh -10, MT1-MMP act inh -6, Rce1 inhib inactive and MT1-MMP act inh RFP 2.
`CCOC(=O)C1=C(c2ccccc2)NC(=O)NC1c1ccc(O)c(Cl)c1` (centres undefined) gave PABP polyA inh 3, CSC inhib 8, Yeast UUG start -5, eIF4H inh -3, MT1-MMP act inh -9, Rce1 inhib inactive, Env fusion inh -21 and MT1-MMP act inh RFP -30.
For O=C(CN1CCN(c2ccccn2)CC1)Nc1ccccc1F the results were PABP polyA inh 21, CSC inhib -2, Yeast UUG start -5, eIF4H inh 15, MT1-MMP act inh 0, Rce1 inhib inactive, Env fusion inh 25 and MT1-MMP act inh RFP -1.
`CCCn1c(CCC(=O)O)nc2cc(S(=O)(=O)N3CCCC3)ccc21` gave PABP polyA inh 6, CSC inhib -5, Yeast UUG start 0, eIF4H inh 9, MT1-MMP act inh 14, Rce1 inhib inactive, Env fusion inh 4 and MT1-MMP act inh RFP 15.
`CN1CCNC(=O)C1CC(=O)O` (centres undefined) gave PABP polyA inh -3, CSC inhib 12, Yeast UUG start -12, eIF4H inh 10, MT1-MMP act inh 0, Rce1 inhib inactive, Env fusion inh -8 and MT1-MMP act inh RFP 1.
CC(=O)n1nc(-c2ccncc2)nc1SCC(=O)Nc1cccc(Cl)c1 was read as PABP polyA inh -2, CSC inhib 10, Yeast UUG start -13, eIF4H inh 0, MT1-MMP act inh -2, Rce1 inhib inactive, Env fusion inh -2 and MT1-MMP act inh RFP 0.
Screening Cc1cccc(-n2c(SCc3cc(=O)n4c(C)cccc4n3)nc3[nH]ncc3c2=O)c1 returned PABP polyA inh -1, CSC inhib -9, eIF4H inh 47 and Rce1 inhib inactive.
Screening COC(=O)c1ccc(-c2csc(NC(=O)C3=COCCO3)n2)cc1 returned PABP polyA inh 9, CSC inhib 6, Yeast UUG start -26, eIF4H inh 5, MT1-MMP act inh -7, Rce1 inhib inactive, Env fusion inh -9 and MT1-MMP act inh RFP 3.
`O=C(N/C(=C/c1ccccc1)C(=O)N1CCCCC1)c1ccccc1` gave PABP polyA inh -1, CSC inhib 5, Yeast UUG start 7, eIF4H inh -3, MT1-MMP act inh -2, Rce1 inhib inactive, Env fusion inh -23 and MT1-MMP act inh RFP 3.
CC(=O)Nc1cccc(CCc2nc3ccccc3[nH]2)c1 was read as PABP polyA inh -4, CSC inhib -10, Yeast UUG start -18, eIF4H inh -8, MT1-MMP act inh -2, Rce1 inhib inactive, Env fusion inh -12 and MT1-MMP act inh RFP -5.
COc1ccc(C(=O)N/N=C/c2c[nH]c3ccccc23)cc1 was read as PABP polyA inh 3, CSC inhib 9, Yeast UUG start -10, eIF4H inh -7, MT1-MMP act inh 1, Rce1 inhib inactive, Env fusion inh -8 and MT1-MMP act inh RFP -1.
`CC1CCCN(C(c2cccs2)c2nnnn2Cc2ccccc2)C1` (centres undefined) gave PABP polyA inh 34, CSC inhib -6, Yeast UUG start -6, eIF4H inh -16, MT1-MMP act inh -11, Rce1 inhib inactive, Env fusion inh 28 and MT1-MMP act inh RFP -5.
Screening CCCCN(C)C(=S)Nc1ccc2nc(N3CCN(CC)CC3)cc(C)c2c1 returned PABP polyA inh -4, CSC inhib 27, eIF4H inh -9, MT1-MMP act inh -7, Rce1 inhib inactive, Env fusion inh -16 and MT1-MMP act inh RFP -8.
`COc1ccc(OCC(O)Cn2c(N3CCCCC3)nc3c2c(=O)[nH]c(=O)n3C)cc1` (centres undefined) gave PABP polyA inh -5, CSC inhib 5, Yeast UUG start 1, eIF4H inh 63, MT1-MMP act inh -1, Rce1 inhib inactive, Env fusion inh 0, eIF4H inh retest -6, PABP polyA inh retest 49 and MT1-MMP act inh RFP 2.
COc1cc(NC(=O)Nc2cccc(Cl)c2)c(C(=O)O)cc1OC was read as PABP polyA inh -6, CSC inhib -4, Yeast UUG start -11, eIF4H inh -2, MT1-MMP act inh -2, Rce1 inhib inactive, Env fusion inh 8 and MT1-MMP act inh RFP 1.
CC(NC(=O)c1ccccc1[N+](=O)[O-])C1CC2CCC1C2 (centres undefined) was read as PABP polyA inh -4, CSC inhib -12, Yeast UUG start -6, eIF4H inh -7, MT1-MMP act inh 2, Rce1 inhib inactive, Env fusion inh -16 and MT1-MMP act inh RFP 4.
`CCN(C(=O)COC(=O)c1ccc(Br)o1)C1CCCCC1` gave PABP polyA inh -12, CSC inhib 5, Yeast UUG start -27, eIF4H inh 4, MT1-MMP act inh -1, Rce1 inhib inactive, Env fusion inh 10 and MT1-MMP act inh RFP 1.
CCCC(=O)N1CCC1(C)C(=O)NS(=O)(=O)c1cccc(F)c1 (centres undefined) was read as Yeast UUG start -7, MT1-MMP act inh 2, Env fusion inh -26 and MT1-MMP act inh RFP 7.
`O=C(CN(Cc1ccc(Cl)cc1)C(=O)c1csnn1)NCc1ccc(F)cc1` gave PABP polyA inh -4, CSC inhib 3, Yeast UUG start -8, eIF4H inh -7, MT1-MMP act inh 1, Rce1 inhib inactive, Env fusion inh -15 and MT1-MMP act inh RFP 1.
Screening COc1cccc(C(=O)OCc2ccccc2C#N)c1O returned PABP polyA inh -4, CSC inhib 0, Yeast UUG start -14, eIF4H inh -10, MT1-MMP act inh 2, Rce1 inhib inactive, Env fusion inh 39 and MT1-MMP act inh RFP 3.
Screening Cc1ccc(CNC(=O)C2CN(S(C)(=O)=O)c3cc(Cl)ccc3O2)cc1 (centres undefined) returned PABP polyA inh 9, CSC inhib -10, eIF4H inh -13, MT1-MMP act inh -2, Rce1 inhib inactive, Env fusion inh 15 and MT1-MMP act inh RFP 0.

Source: PubChem BioAssay

Only part of the results is shown (hit frequency here may not be typical).
